Vaccinia stage = blocks a specific stage of Vaccinia orthopoxvirus infection; activity change (mCherry), % (test concentration not listed); Vaccinia-infected cells, mCherry/Venus stage reporter fluorescence; active compounds read low; some inactives read as strong as hits; 89,000 tested, 0.01% active; AID 1053133;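 active = mCherry past -33% and 40 or more points under the early reporter, replicates agreeing; inconclusive = past -33% without that gap or agreement; tested in A549 cells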;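 also: scaled between vehicle wells and reference inhibitor wells; 23 nL library stock went into each well; one replicate is shown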
Vaccinia stage Venus = also measured in Vaccinia stage; calls as there; activity change (Venus), %; measured here: Venus reporter, other viral stage;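 negative = less Venus signal; first of two replicates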
Numbers without * were called inactive; u = inconclusive; x = not tested or not shown; & = joins results of further samples. A portion of the library. The share of hits here may be higher or lower than overall.

structure | Vaccinia stage | Vaccinia stage Venus
O=C(C[C@@H]1CC[C@H]2[C@@H](COC[C@H](O)CN2Cc2ccc(Cl)cc2)O1)NCc1cccc(F)c1 | -19 | -16
COc1cccc(C#Cc2ccc([C@@H]3[C@H](C#N)N(C(=O)c4ccccn4)[C@H]3CO)cc2)c1 | u | x
C/C=C/c1ccc2c(c1)O[C@@H](CN(C)C(=O)c1ccncc1)[C@H](C)CN([C@@H](C)CO)S2(=O)=O | -9 | 12
O=C(C[C@H]1C[C@@H]2c3cc(NS(=O)(=O)c4ccc(F)cc4)ccc3O[C@@H]2[C@@H](CO)O1)N1CCCCC1 | 0 | 4
O=C(O)C[C@H]1C=C[C@@H](NC(=O)Nc2ccccc2)[C@@H](CO)O1 | 2 | 6
CN1C(=O)c2cc(NC(=O)c3ccc(C(F)(F)F)cc3)ccc2OC[C@@H]2O[C@H](CC(=O)NC3Cc4ccccc4C3)CC[C@H]21 | u | x
C[C@H]1CCCCO[C@@H](CN(C)C(=O)C2CCCCC2)[C@@H](C)CN([C@@H](C)CO)C(=O)c2cc(NS(=O)(=O)c3cn(C)cn3)ccc2O1 | 25 | 16
Cc1noc(C)c1NC(=O)N(C)C[C@@H]1OCCCC[C@H](C)Oc2ccc(NS(=O)(=O)c3ccc(F)cc3)cc2C(=O)N([C@@H](C)CO)C[C@@H]1C | 13 | 5
CN(C)C(=O)[C@@H]1[C@@H](CO)[C@@H]2Cn3c(ccc(-c4ccccc4)c3=O)[C@@H]2N1Cc1ccccc1 | 3 | -1
C[C@H]1CN([C@@H](C)CO)C(=O)Cc2cc(NS(=O)(=O)c3ccccc3)ccc2O[C@@H]1CN(C)C(=O)Nc1ccc(F)cc1 | 15 | 5
COc1cccc(-c2ccc3n(c2=O)C[C@@H]2[C@@H](CO)[C@H](C(=O)N(C)C)N(CC4CC4)[C@H]32)c1 | -2 | 2
C[C@@H]1CN([C@H](C)CO)C(=O)Cc2cc(NC(=O)Nc3ccc(F)cc3)ccc2O[C@@H]1CN(C)C(=O)Nc1ccccc1 | 14 | 2
CCC(=O)N1[C@@H]2c3ccc(-c4ccccc4F)c(=O)n3C[C@H]1[C@H](CO)[C@H]2C(=O)NC1CCCC1 | 3 | 4
C[C@@H]1CN([C@H](C)CO)C(=O)c2cc(Br)cnc2O[C@H]1CN(C)C(=O)C1CCCCC1 | -2 | -9
O=C(Cc1ccccc1)N1CCCCN2[C@H](CO)[C@H](c3ccc(-c4ccccc4)cc3)[C@@H]2C1 | -17 | -21
C/C=C/c1cnc2c(c1)C(=O)N([C@H](C)CO)C[C@H](C)[C@@H](CN(C)Cc1ccncc1)O2 | 25 | 15
C[C@H](CO)N1C[C@H](C)[C@H](CN(C)S(=O)(=O)c2cn(C)cn2)Oc2c(NS(=O)(=O)c3ccccc3)cccc2C1=O | 14 | 4
CCS(=O)(=O)NCC[C@@H]1CC[C@H](NS(=O)(=O)c2cccc(Cl)c2)[C@H](CO)O1 | -4 | -9
O=C(C[C@@H]1C=C[C@H](NC(=O)Nc2cc(F)ccc2F)[C@H](CO)O1)NCc1ccccn1 | -3 | 3
CN(C)CCCNC(=O)C[C@H]1CC[C@H]2[C@@H](COc3ccc(NC(=O)c4ccc5c(c4)OCO5)cc3C(=O)N2C)O1 | -2 | -12
C[C@H](CO)N1C[C@H](C)[C@@H](CN(C)C(=O)C2CCCCC2)OCCCC[C@H](C)Oc2ccc(NC(=O)Nc3ccc(F)cc3)cc2C1=O | -12 | 2
COCCNC(=O)C[C@@H]1C[C@@H]2c3cc(NC(=O)Nc4ccc(C(F)(F)F)cc4)ccc3O[C@@H]2[C@@H](CO)O1 | -1 | 5
CCNC(=O)C[C@@H]1CC[C@H]2[C@@H](COc3ccc(NC(C)=O)cc3C(=O)N2C)O1 | 37 | 35
COc1ccc(NC(=O)Nc2ccc3c(c2)C(=O)N([C@@H](C)CO)C[C@H](C)[C@H](CN(C)Cc2ccncc2)OCCCC[C@@H](C)O3)cc1 | 20 | 12
O=C(C[C@H]1CC[C@H]2[C@@H](COC[C@@H](O)CN2Cc2nccs2)O1)N1CCC(Cc2ccccc2)CC1 | -21 | -14
N#C[C@@H]1[C@H](c2ccccc2C2=CCCCC2)[C@H](CO)N1S(=O)(=O)c1cccc(F)c1 | u | x
COc1ccc(S(=O)(=O)N(C)C[C@@H]2Oc3ccc(NC(=O)c4ccncc4)cc3CC(=O)N([C@@H](C)CO)C[C@@H]2C)cc1 | 15 | 16
C[C@H](CO)N1C[C@H](C)[C@@H](CN(C)C(=O)CCCN(C)C)OCCCC[C@H](C)Oc2ccc(NS(=O)(=O)c3ccc(F)cc3)cc2C1=O | 18 | 8
CO[C@H]1CN(C)C(=O)c2cc(NS(=O)(=O)c3ccc(Oc4ccccc4)cc3)ccc2OC[C@H](C)NC[C@H]1C | -31 | -17
Cc1ccc(S(=O)(=O)N(C)C[C@@H]2OCCCC[C@@H](C)Oc3ccc(NC(=O)Nc4ccc(F)cc4)cc3C(=O)N([C@H](C)CO)C[C@@H]2C)cc1 | 0 | -2

Further results:
structure | Vaccinia stage | Vaccinia stage Venus
C#CCNC(=O)C1=C[C@H](C2CCCCC2)C[C@H](OCc2ccc(CO)cc2)O1 | -2 | -5
CC(C)NC(=O)N(C)C[C@@H]1Oc2ccc(NC(=O)CCC(F)(F)F)cc2C(=O)N([C@H](C)CO)C[C@H]1C | 9 | 3
C[C@H]1CN([C@@H](C)CO)C(=O)c2cc(NS(=O)(=O)c3ccc(Cl)cc3)ccc2O[C@H]1CN(C)C(=O)Nc1ccc(F)cc1 | 10 | 7
CCCN1C[C@@H](C)[C@H](OC)CN(C)C(=O)c2cc(NC(=O)Nc3c(C)noc3C)ccc2OC[C@H]1C | -3 | 6
CC(=O)N1CC[C@@H]2[C@@H](CO)Nc3ccc(-c4ccccc4)cc3[C@@H]21 | 8 | -1
CCCNC(=O)N[C@@H]1C=C[C@H](CC(=O)NCCc2ccccc2)O[C@H]1CO | -8 | 4
CO[C@@H]1CN(C)C(=O)c2ccc(NC(=O)C3CC3)cc2OC[C@@H](C)N(C(=O)c2cnccn2)C[C@H]1C | 7 | 10
CN(C)CC(=O)N1[C@H](C(=O)Nc2nccs2)[C@@H](CO)[C@@H]2Cn3c(ccc(C4=CCCCC4)c3=O)[C@@H]21 | 9 | 11
COc1ccc(NC(=O)N(C)C[C@H]2Oc3ccc(NS(=O)(=O)c4ccc(Cl)cc4)cc3CC(=O)N([C@H](C)CO)C[C@@H]2C)cc1 | 21 | 24
CCS(=O)(=O)Nc1ccc2c(c1)C(=O)N(C)C[C@@H](OC)[C@@H](C)CN(C(C)=O)[C@H](C)CO2 | 4 | 2
CO[C@H]1CN(C)C(=O)c2ccc(NC(C)=O)cc2OC[C@H](C)NC[C@H]1C | 13 | 9
CCNC(=O)C[C@H]1CC[C@@H]2[C@@H](COc3ccc(NC(=O)Nc4ccccc4C)cc3C(=O)N2C)O1 | 3 | 3
C[C@H]1CCCCO[C@H](CN(C)C(=O)Nc2cccc3ccccc23)[C@@H](C)CN([C@@H](C)CO)C(=O)c2cc(NS(=O)(=O)c3ccccc3)ccc2O1 | 20 | 12
COc1ccc(NC(=O)N(C)C[C@@H]2Oc3c(NC(=O)c4ccncc4)cccc3C(=O)N([C@@H](C)CO)C[C@@H]2C)cc1 | 14 | -1
COCC(=O)N1C[C@H]2[C@@H](c3ccccc31)[C@@H](CO)N2C(=O)Nc1ccccc1Cl | 6 | 3
CC(C)C#Cc1cnc2c(c1)C(=O)N([C@@H](C)CO)C[C@@H](C)[C@H](CN(C)C(=O)Nc1ccccc1)O2 | -8 | -9
CCCNC(=O)N1CC2(CCN(Cc3cccnc3)CC2)c2c(n(C)c3cc(OC)ccc23)[C@H]1CO | 11 | 17
C[C@@H]1CN([C@@H](C)CO)C(=O)c2cc(N(C)C)ccc2O[C@H]1CN(C)C(=O)Nc1ccc(C(F)(F)F)cc1 | -2 | -7
CCCC#Cc1ccc2c(c1)O[C@H](CN(C)Cc1cncnc1)[C@H](C)CN([C@@H](C)CO)S2(=O)=O | 0 | -8
C[C@H](CO)N1C[C@H](C)[C@@H](CN(C)C(=O)C2CCOCC2)Oc2ncc(Br)cc2C1=O | 23&15 | 19&12
CO[C@H]1CN(C)C(=O)c2ccc(NC(=O)c3nc4ccccc4s3)cc2OC[C@@H](C)N(Cc2ccncc2)C[C@H]1C | -7 | -10
C[C@@H]1CN([C@H](C)CO)C(=O)c2c(c3ccccc3n2C)-c2ccccc2CO[C@@H]1CN(C)S(=O)(=O)c1ccc(Cl)cc1 | u | x
CCC(=O)Nc1ccc2c(c1)OC[C@@H](C)N(Cc1cncnc1)C[C@@H](C)[C@@H](OC)CN(C)C2=O | 13 | 11
C[C@@H]1CCCCO[C@@H](CN(C)S(=O)(=O)c2cccs2)[C@@H](C)CN([C@@H](C)CO)C(=O)c2cc(NS(=O)(=O)c3cn(C)cn3)ccc2O1 | 19 | 7
CC(C)CC#Cc1ccc2c(c1)O[C@H](CN(C)C(=O)Cc1ccccn1)[C@@H](C)CN([C@@H](C)CO)S2(=O)=O | u | x
C[C@H](CO)N1C[C@H](C)[C@@H](CN(C)Cc2ccc3c(c2)OCCO3)OCc2cn(nn2)CCCC1=O | 0 | -1
COc1ccc(NC(=O)N2C[C@@H]3[C@H](c4ccccc42)[C@H](CO)N3C(=O)C2CCCCC2)cc1 | 20 | 14
CCCNC(=O)N(C)C[C@H]1Oc2cc(-c3ccc(C)cc3)ccc2S(=O)(=O)N([C@H](C)CO)C[C@H]1C | -16 | -17
COc1ccc(CN(C)C[C@@H]2Oc3c(NC(=O)Nc4ccc(C(F)(F)F)cc4)cccc3C(=O)N([C@H](C)CO)C[C@@H]2C)cc1 | u | x
CCCC(=O)Nc1ccc2c(c1)C(=O)N(C)[C@H]1CC[C@H](CC(=O)NCCN3CCCCC3)O[C@@H]1CO2 | 16 | 10

New compounds follow.
structure | Vaccinia stage | Vaccinia stage Venus
C[C@@H]1CN([C@H](C)CO)C(=O)c2cc(N(C)C)ccc2O[C@@H]1CN(C)Cc1ccc2c(c1)OCO2 | -14 | -9
Cc1noc(C)c1NC(=O)N(C)C[C@H]1OCCCC[C@@H](C)Oc2ccc(NC(=O)Nc3ccc(C(F)(F)F)cc3)cc2C(=O)N([C@H](C)CO)C[C@@H]1C | 9 | 6
CO[C@H]1CN(C)C(=O)c2ccc(NC(C)=O)cc2OC[C@@H](C)N(CC2CCCCC2)C[C@H]1C | -16 | -14
C[C@@H]1CN([C@@H](C)CO)C(=O)Cc2cc(NS(=O)(=O)c3ccc(Cl)cc3)ccc2O[C@@H]1CN(C)C(=O)Nc1ccccc1 | 15 | 10
CC(C)c1cn(CC[C@H]2CC[C@H](NC(=O)C3CCCC3)[C@@H](CO)O2)nn1 | -12 | 4
COc1ccc(-c2ccc([C@@H]3[C@@H](CO)N4C(=O)CN(Cc5ccc(C)cc5)C[C@H]34)cc2)cc1 | -1 | -2
COc1cccc(-c2ccc3c(c2)O[C@@H](CN(C)C(=O)c2ccccc2F)[C@@H](C)CN([C@@H](C)CO)S3(=O)=O)c1 | u | x
CCCC#Cc1ccc([C@@H]2[C@@H](CO)N3CCCCN(CC4CCOCC4)C[C@@H]23)cc1 | 3 | 1
Cc1ccc(S(=O)(=O)N2C[C@H](O)COC[C@@H]3O[C@@H](CC(=O)N[C@H]4CCN(Cc5ccccc5)C4)CC[C@H]32)cc1 | -10 | -6
Cc1ccc(CN2CC(=O)N3[C@@H](CO)[C@H](c4ccc(-c5ccccc5F)cc4)[C@@H]3C2)cc1 | -25 | -22
CCC(=O)N1CCCCN2[C@@H](CO)[C@H](c3ccc(-c4cccnc4)cc3)[C@@H]2C1 | 22 | 11
O=C(C[C@@H]1CC[C@@H]2[C@H](COC[C@H](O)CN2S(=O)(=O)c2cccc(Cl)c2)O1)NC1CCC1 | -9 | 0
C/C=C/c1ccc([C@H]2[C@@H](CN(C)C(=O)CC)N(C(=O)NC(C)C)[C@H]2CO)cc1 | 5 | 7
C[C@H](CO)N1C[C@H](C)[C@@H](CN(C)S(=O)(=O)c2ccc(F)cc2)Oc2ncc(C#CC3(O)CCCC3)cc2C1=O | 0 | 2
O=C(NCC[C@@H]1CC[C@@H](NC(=O)C2CCOCC2)[C@H](CO)O1)c1cc(Cl)cc(Cl)c1 | 5 | 3
COc1ccc(C#Cc2ccc([C@@H]3[C@H]4CN(C(=O)c5ccncc5)CC(=O)N4[C@H]3CO)cc2)cc1 | -23 | -21
COc1ccc(NC(=O)N2CC[C@@H]3[C@@H](CO)N(C)c4ccc(-c5ccccc5F)cc4[C@@H]32)cc1 | -4 | -5
COc1ccc(S(=O)(=O)N(C)C[C@@H]2Oc3c(NS(=O)(=O)c4ccc(C)cc4)cccc3C(=O)N([C@H](C)CO)C[C@H]2C)cc1 | 0 | -7
O=C(C1CCC1)N1CC(=O)N2[C@H](CO)[C@H](c3ccc(C#CCc4ccccc4)cc3)[C@@H]2C1 | 1 | 0

Reprinted at random: 7 entries already listed
structure | Vaccinia stage | Vaccinia stage Venus
CO[C@H]1CN(C)C(=O)c2ccc(NC(C)=O)cc2OC[C@H](C)NC[C@H]1C | 13 | 9
CCNC(=O)C[C@H]1CC[C@@H]2[C@@H](COc3ccc(NC(=O)Nc4ccccc4C)cc3C(=O)N2C)O1 | 3 | 3
CCS(=O)(=O)Nc1ccc2c(c1)C(=O)N(C)C[C@@H](OC)[C@@H](C)CN(C(C)=O)[C@H](C)CO2 | 4 | 2
CN(C)CCCNC(=O)C[C@H]1CC[C@H]2[C@@H](COc3ccc(NC(=O)c4ccc5c(c4)OCO5)cc3C(=O)N2C)O1 | -2 | -12
Cc1noc(C)c1NC(=O)N(C)C[C@H]1OCCCC[C@@H](C)Oc2ccc(NC(=O)Nc3ccc(C(F)(F)F)cc3)cc2C(=O)N([C@H](C)CO)C[C@@H]1C | 9 | 6
COc1cccc(-c2ccc3n(c2=O)C[C@@H]2[C@@H](CO)[C@H](C(=O)N(C)C)N(CC4CC4)[C@H]32)c1 | -2 | 2
CO[C@H]1CN(C)C(=O)c2cc(NS(=O)(=O)c3ccc(Oc4ccccc4)cc3)ccc2OC[C@H](C)NC[C@H]1C | -31 | -17

High-throughput results (PubChem BioAssay)
